# Screening data: PubChem, Southern Research Institute
# Mtb growth = Mycobacterium tuberculosis H37Rv growth inhibition, putative kinase inhibitor library, confirmatory dose response (AID 2842); inhibition, % at 10 µg/mL, or IC90 in µg/mL where a hit was titrated; M. tuberculosis H37Rv growth inhibition; higher % means a stronger effect; some inactives read as strong as hits; actives 5.2% (n = 24,000);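 active means confirmed in a dose series; inconclusive means mostly over 85% at the one dose but not retested; inactive means below 85% or not confirmed; about a fifth of its hits are not listed in these tables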;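 further: bacteria incubated one week before Alamar blue readout; 0% = bacteria only wells and 100% = bacteria with high antibiotic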
# Active calls of the source: *; ? = inconclusive. Some of the compounds tested; count on the stated rates, not on these rows.
Molecule | Mtb growth
CCOC(=O)C(CC)Sc1ccc2nnc(-c3ccc(Cl)cc3)n2n1 (configuration not stated) | 22.7%
Cc1ccc2sc(N(CCCn3ccnc3)C(=O)c3ccco3)nc2c1C | 0.58µg/mL*
Cc1cccc(N2C(=O)N(Cc3cccc(C#N)c3)c3ccccc3S2(=O)=O)c1 | 9.0%
COc1ccc(C2C=C(c3ccc(OC)c(OC)c3)Nc3ncnn32)cc1 (configuration not stated) | 25.6%
CC(C)c1ccc(NC(=O)c2cnc3sccn3c2=O)cc1 | 16.1%
O=C(NCCS(=O)c1c(-c2ccc(F)cc2)[nH]c2ccccc12)C(=O)c1c[nH]c2ccccc12 (configuration not stated) | 71.5%
COc1cccc(Cn2cc(S(=O)(=O)c3ccc(Cl)cc3)c(=O)c3cc(OC)ccc32)c1 | 58.3%
O=C(Nc1nc2ccc(Br)cc2s1)c1ccc(S(=O)(=O)N2CCc3ccccc32)cc1 | 13.9%
COc1ccc(CCNC(=O)C(=O)NCC(c2ccco2)N2CCc3ccccc32)cc1 (configuration not stated) | -2.7%
CC(C)(C)CC(=O)Nc1c(C(=O)Nc2ccc(F)cc2)oc2ccccc12 | -4.2%

# (further entries)
Molecule | Mtb growth
O=C1NC(=Nc2ccc(O)cc2)S/C1=C/c1cccs1 | -6.0%
CN1CCc2c(sc(NC(=O)c3ccc(C(C)(C)C)cc3)c2C(N)=O)C1 | 12.7µg/mL*
Nc1nc2ccc(C(=O)O)cc2s1 | -6.2%
CSCc1nnc(NC(=O)c2ccc(S(=O)(=O)N3CC(C)CC(C)C3)cc2)o1 (configuration not stated) | 96.7%
Cc1cc(NC(=O)CSc2nc(N)c(NC(=O)c3ccco3)c(=O)[nH]2)no1 | -2.8%
COc1ccccc1Cn1cc(C(=O)c2ccc(C)c(C)c2)c(=O)c2cc3c(cc21)OCCO3 | 38.3%
COc1ccc(C(=O)NC2CC(=O)N(c3cccc(OC)c3)C2)cc1 (configuration not stated) | -5.0%
CN(C)c1ccc(C(=O)NNc2nc3c(Cl)cccc3s2)cc1 | 25.0%
O=C(Nc1c(C(=O)Nc2ccccc2F)oc2ccccc12)c1ccccc1Br | 9.3%
O=C(Nc1nnc(-c2ccc3c(c2)CCCC3)o1)c1cccc(Cl)c1 | 8.65µg/mL*

# Additional entries follow:
Molecule | Mtb growth
Cc1cccc(CC(=O)NCCc2cc3ccc(C)c(C)c3[nH]c2=O)c1 | -8.0%
COc1ccc(NC(=O)CSc2nc3c(cnn3-c3ccc(S(N)(=O)=O)cc3)c(=O)[nH]2)cc1 | -7.7%
Cc1cc(Nc2ccc(Br)cc2)n2ncc(-c3ccccc3)c2n1 | 82.2%
CC(C)n1c(SCc2ccccc2Cl)nc2c1c(=O)[nH]c(=O)n2C | ?
COc1ccc(-n2nnc3c(SCC(=O)N4CCCC4)ncnc32)cc1 | 2.8%
Cc1oc(-c2ccc(Cl)cc2)cc1-c1nn2c(-c3ccco3)nnc2s1 | -4.2%
COc1ccc(NC(=O)COC(=O)c2ccc3c(c2)C(=O)N(c2ccccc2Cl)C3=O)cc1 | 8.4%
NC(=O)c1ccc(NC(=O)C(=O)Nc2ccc3c(c2)N(S(=O)(=O)c2cccs2)CCC3)cc1 | -8.1%
CC1CC(C)CN(S(=O)(=O)c2ccc(C(=O)Nc3nc(-c4ccc(C(C)C)cc4)cs3)cc2)C1 (configuration not stated) | -0.3%
COc1ccc(-n2nc3c(c2NC(=O)c2ccccc2)CSC3)cc1 | 2.9%

# New compounds follow.
Molecule | Mtb growth
CCCn1c2c(c(=O)[nH]c1=O)C(c1ccccc1C)C1=C(COC1=O)N2 (configuration not stated) | 4.4%
O=C(CSc1nnc2ccc(-c3cccnc3)nn12)Nc1cccc(Cl)c1 | -7.0%
COc1ccccc1-c1nc(C(N)=O)c2[nH]c(=O)n(-c3ccc(C)c(C)c3)c2n1 | -14.4%
Cc1cc2cc(CCNC(=O)COc3ccccc3)c(=O)[nH]c2cc1C | -4.9%
Cc1cccc(Cn2c(C3CC(=O)N(Cc4ccccc4)C3)nc3ccccc32)c1 (configuration not stated) | 17.7%
CC(C)(C)C(=O)Nc1c(C(=O)Nc2ccc(F)c(F)c2)oc2ccccc12 | -20.5%
COC(=O)c1ccccc1NS(=O)(=O)c1ccc(NC(C)=O)cc1 | -17.1%
Cc1ccc(CSc2nc(C)nc3c2c(=O)n(C)c(=O)n3C)cc1 | -0.3%
OCCN1CCN(c2nc(Nc3ccc(F)cc3)c3nccnc3n2)CC1 | -9.5%
CN1C(=O)c2cccc(NC(=O)c3cc4c(ccc5ccccc54)oc3=O)c2C1=O | -13.3%

# Next section
Molecule | Mtb growth
Cc1cc(C)c(NC(=O)c2ccc(S(=O)(=O)N3CCOCC3)cc2)c(C)c1 | 1.5%
O=C1/C(=C\c2ccco2)SC(=S)N1CCCC(=O)N1CCCc2ccccc21 | 59.9%
O=C(CSc1nnc(-c2cccnc2)o1)c1ccc(OC(F)F)cc1 | -4.3%
COc1ccccc1N1C(=O)N(c2ccccc2OC)C2CS(=O)(=O)CC21 (configuration not stated) | -11.2%
CCCCOc1ccc(/C=C2\SC(=S)N(C(CC(=O)O)C(=O)O)C2=O)cc1OC (configuration not stated) | -34.4%
CCOc1ccc(NC(=O)c2oc3ccccc3c2NC(=O)c2cccc(C(F)(F)F)c2)cc1 | 7.9%
CCC(Sc1nc2c(cnn2-c2ccccc2)c(=O)[nH]1)C(=O)OC (configuration not stated) | 5.2%
CCOc1ccccc1C(=O)Oc1cc(C)[nH]c(=O)c1[N+](=O)[O-] | -0.5%
COc1ccc(-c2nnc3ccc(SCC(=O)N4CCCCC4)nn23)cc1OC | -0.7%
CC1CN(S(=O)(=O)c2ccc(C(=O)NNc3nc4cc5c(cc4s3)OCO5)cc2)CC(C)O1 (configuration not stated) | 84.0%

# A draw from above in order of SMILES length, rising.
Molecule | Mtb growth
CCC(Sc1nc2c(cnn2-c2ccccc2)c(=O)[nH]1)C(=O)OC (configuration not stated) | 5.2%
COc1ccccc1N1C(=O)N(c2ccccc2OC)C2CS(=O)(=O)CC21 (configuration not stated) | -11.2%
CCOc1ccccc1C(=O)Oc1cc(C)[nH]c(=O)c1[N+](=O)[O-] | -0.5%
O=C1/C(=C\c2ccco2)SC(=S)N1CCCC(=O)N1CCCc2ccccc21 | 59.9%
CCCCOc1ccc(/C=C2\SC(=S)N(C(CC(=O)O)C(=O)O)C2=O)cc1OC (configuration not stated) | -34.4%
CC1CN(S(=O)(=O)c2ccc(C(=O)NNc3nc4cc5c(cc4s3)OCO5)cc2)CC(C)O1 (configuration not stated) | 84.0%

# More compounds follow.
Molecule | Mtb growth
CSc1cc(C)[nH]c(=O)n1 | -12.9%
CCC(C)Sc1nc2c(c(=O)[nH]1)C(c1cccc(OC)c1)C1=C(CCCC1=O)N2 (configuration not stated) | 9.4%
O=C(Cc1cc(=O)[nH]c(=O)[nH]1)NCCCN1CCOCC1 | -2.1%
Cc1ccc(-c2nnc3ccc(SCC(=O)NCC4CCCO4)nn23)cc1 (configuration not stated) | -9.4%
COc1ccc(Cl)cc1C(=O)NCCc1cc2ccc(C)c(C)c2[nH]c1=O | 3.6%
Cc1nnc(NC(=O)CSc2nc3c(c(=O)n2-c2ccc([N+](=O)[O-])cc2)SCC3)s1 | 6.3%
Cc1ccc(C(=O)COC(=O)CN2C(=O)c3ccccc3C2=O)cc1 | -3.3%
O=C(O)c1cccc(Nc2nc(-c3cc4ccccc4oc3=O)cs2)c1 | 1.0%
COc1ccc(CCN2C(=O)CC(Nc3ccc(N(C)C)cc3)C2=O)cc1OC (configuration not stated) | -6.8%
Cc1nnc(SCC(C)Cn2c(N3CCC(C(N)=O)CC3)nc3c2c(=O)[nH]c(=O)n3C)s1 (configuration not stated) | -6.6%

# (list continues)
Molecule | Mtb growth
CCCCCCCCn1c(Sc2nc3ccccc3[nH]2)nc2c1c(=O)[nH]c(=O)n2C | 0.3%
c1nc(N2CCCCCC2)c2[nH]cnc2n1 | 18.3%
COc1ccc(C(=O)Nc2c(C(=O)Nc3ccc4c(c3)OCCO4)oc3ccccc23)c(OC)c1 | -2.8%
Cc1cc(NCCN2CCOCC2)n2ncc(-c3ccccc3)c2n1 | 8.4%
O=C(Nc1nnc(-c2ccccc2)s1)c1c(F)cccc1Cl | 1.8%
O=C(CCOc1ccccc1)Nc1nnc(-c2cc(Cl)ccc2Cl)o1 | 1.79µg/mL*
CCOc1ccc(NC(=O)CSc2nncc(=O)[nH]2)cc1 | 79.8%
COc1cccc(NC(=O)c2oc3ccccc3c2NC(=O)CC(c2ccccc2)c2ccccc2)c1 | 8.8%
COC(=O)CCC(=O)Nc1ccc(S(=O)(=O)Nc2cc(C)on2)cc1 | -5.7%
COC(=O)c1cc(N/C=C(\C#N)c2nc(-c3cccc([N+](=O)[O-])c3)cs2)cc(C(=O)OC)c1 | 9.1%

# Other results.
Molecule | Mtb growth
COc1ccc(C(=O)Nc2c(N)nc(SCc3cc(C)ccc3C)[nH]c2=O)cc1 | 13.6%
CCOC(=O)N1CCN(CC(=O)c2ccc(O)cc2O)CC1 | -10.5%
COc1ccc(C2CC(=O)NC(SCC(=O)Nc3ccc(Br)cc3)=C2C#N)cc1 (configuration not stated) | 0.9%
O=C(CN1C(=O)c2ccccc2C1=O)Nc1nc2c(s1)CCc1ccccc1-2 | -13.9%
CCOc1ccc(C(=O)Nc2c(N)nc(SCC(=O)Nc3ccc(F)cc3F)[nH]c2=O)cc1 | -1.8%
COc1cccc(C(c2sc3ncnn3c2O)N2CCCCC2)c1 (configuration not stated) | -3.0%
Cc1ccc(-n2ncc3c(=O)n(CC(=O)NCc4ccco4)cnc32)cc1 | 6.8%
Cc1ccc(S(=O)(=O)Nc2ccccc2C(=O)Nc2sc3c(c2C(N)=O)CC(C)CC3)cc1 (configuration not stated) | 7.5%
COC(=O)Cn1c(=NC(=O)COc2ccc(Cl)cc2)sc2cc(NC(C)=O)ccc21 | -3.7%
CCCCN(Cc1ccccc1)c1ncnc2nc[nH]c12 | 63.0%

# (next part)
Molecule | Mtb growth
Cc1c(C)n2c(SCC(=O)N3CCC(C)CC3)nnc2[nH]c1=O | -18.2%
Cc1ccc(NC(=O)CSC2=NC(C)(C)N=C2c2ccc(C)cc2)cc1 | 70.7%
COc1ccc2nc(-c3cccc(NC(=O)c4ccccc4C(F)(F)F)c3)cn2n1 | 16.7%
Cc1noc(NS(=O)(=O)c2ccc(NC(=O)COc3cccc(Br)c3)cc2)c1C | -10.3%
O=C(NCCCO)C(=O)Nc1cc2c3c(c1)CC(=O)N3CCC2 | -8.6%
O=C(NNc1ncnc2c1cnn2-c1ccc(F)cc1)c1cccc([N+](=O)[O-])c1 | 20.0%
CCOc1ccc(NC(=O)CC2Nc3ccccc3NC2=O)cc1 (configuration not stated) | 7.6%
N#CC1=C(N)Oc2c(oc(CO)cc2=O)C12C(=O)N(CC(N)=O)c1ccccc12 (configuration not stated) | -5.1%
CC(=O)N1CCc2c(sc(NC(=O)c3cc(C)ccc3C)c2C#N)C1 | -6.8%
Cc1ccc(Cn2c(O)c(C3=c4ccccc4=NC3=O)sc2=S)cc1 | -6.0%

# New compounds follow:
Molecule | Mtb growth
CCOC(=O)c1nn(-c2ccccc2)c(=O)c2c(NC(=O)C34CC5CC(CC(C5)C3)C4)scc12 | -8.9%
CCCc1nnc(NC(=O)c2oc3cc(C)c(C)cc3c2C)s1 | -1.8%
COc1cccc2c(=O)n(CC(=O)Nc3ccccc3C(F)(F)F)ccc12 | -9.7%
COc1cccc(C(=O)Nc2cc(C)c3c(=O)oc4ccccc4c3n2)c1OC | 0.8%
Nc1ncnc(Oc2ccccc2Cl)c1[N+](=O)[O-] | 9.3%
COc1ccc(C(=O)CSc2ncnc3ccccc23)cc1 | 12.3%
CCS(=O)(=O)c1nc2ccccc2n1Cc1cccc2ccccc12 | 21.3%
CCOC(=O)c1nn(-c2ccc(C)cc2)c(=O)c2c(NC(=O)CCC3CCCCC3)scc12 | 29.3%
Nc1nc(SCC(=O)Nc2cccc(Cl)c2)[nH]c(=O)c1NC(=O)c1ccc(Cl)cc1 | -19.3%
CC(C)CCNC(=O)C(=O)Nc1cc2c3c(c1)CCC(=O)N3CCC2 | 1.2%

# The results go on:
Molecule | Mtb growth
CC(=O)CSc1nc2c(c(=O)[nH]c(=O)n2C)n1Cc1ccc(C)cc1 | 12.3%
CCOC(=O)c1nn(-c2ccc(F)cc2)c(=O)c2c(NC(=O)Cc3ccccc3)scc12 | -6.2%
O=C(CSc1ccnc(=O)[nH]1)Nc1ccccc1F | -14.9%
COc1ccc2cc(CCNC(=O)/C=C\c3ccc4c(c3)OCO4)c(=O)[nH]c2c1 | 0.1%
COc1ccc(C)c2sc(NNC(=O)c3cccc(F)c3)nc12 | 32.6µg/mL*
CC1CCCCN1S(=O)(=O)c1ccc(C(=O)Nc2sc3c(c2C#N)CCCC3)cc1 (configuration not stated) | -5.4%
Cn1c(=O)c2c(SCC(=O)Nc3ccccc3C(F)(F)F)ccnc2n(C)c1=O | 4.5%
Cc1ccc(NC(=O)Cn2cc(S(=O)(=O)c3ccc(C(C)(C)C)cc3)c(=O)c3ccccc32)cc1 | 5.4%
Cc1cc(NC(=O)c2csc3c2CCC(C)C3)no1 (configuration not stated) | -6.3%
CC(C)(C)c1ccc(C(=O)Nc2nnc(-c3ccc(S(C)(=O)=O)cc3)o2)cc1 | 24.6µg/mL*

# Following part
Molecule | Mtb growth
O=C(Nc1ncc(-c2ccc3c(c2)OCO3)s1)c1cc(Cl)sc1Cl | 13.2%
CCC(=O)Nc1c2c(nn1-c1ccc(F)cc1)CS(=O)C2 (configuration not stated) | -7.9%
CSc1nc(/N=C/c2cc3cc(C)ccc3[nH]c2=O)c(-c2ccccc2)s1 | -4.6%
COc1cc(OC)cc(C(=O)Nc2c(C(=O)Nc3ccccc3)oc3ccccc23)c1 | 8.3%
CC1CN(C(=O)CSc2nnc(-c3ccncc3)o2)CC(C)O1 (configuration not stated) | -9.5%
COc1ccc(NC(=O)CC(NCc2cccnc2)C(=O)O)cc1 (configuration not stated) | 0.2%
CCCn1c(NCC)nc2c1c(=O)[nH]c(=O)n2C | 1.6%
C=CCn1c(SCC(=O)Nc2ccc3c(c2)OCO3)nc2sc3c(c2c1=O)CCCC3 | 12.1%
CN1C(=O)c2cccc(NC(=O)c3ccc4ncsc4c3)c2C1=O | -7.8%
